# Source: PubChem BioAssay (National Center for Advancing Translational Sciences (NCATS))
# Sfp inh – blocks B. subtilis Sfp PPTase activity; Potency, µM, inactives show max response, negative = inhibition, most hits filed as inhibitors; Biochemical Sfp PPTase activity, qHTS; 310,000 compounds, 3.5% hits; Q9F4F7; active means well fitted inhibition curve with a large enough effect; inconclusive means small, poorly fitted or top-dose-only effect, or another doubt; inactive means no such curve, though single readings can be large or run the other way;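 further: the enzyme is Sfp with the accession as filed and its product quenches rhodamine fluorescence; potency means the concentration at half of the fitted maximal effect; 0% = enzyme reaction without inhibitor and -100% = no enzyme wells; top concentration of the series not given in the record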
#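 Reaction rates are the 30-min fluorescence difference (ex 525, em 598 nm) in wells containing 15 nM Sfp, 5 uM rhodamine-CoA and 12.5 uM BHQ-2-YbbR at pH 7.6 with 10 mM MgCl2.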
# gsp antag – antagonizes gsp, the McCune-Albright syndrome mutation; gsp-mutant cells, cAMP HTRF, 30 min; control for the full effect not named in the record; AID 624288; Potency, µM (titrated, usually from 76.9 µM), for the others: at the top dose activity change, negative = inhibition, hits mostly inhibitors; 340,000 compounds, 0.4% hits; active = falling curve of any shape with a large fitted effect; inconclusive = falling curve, mostly with a smaller effect; inactive = flat or rising curve; cell line not stated here;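 further: intracellular cAMP measured with PDE inhibitor Ro 20-1724 present during compound exposure; potency means the concentration at half of the fitted maximal effect; on the % scale 0 is the no-effect control and ±100 the full control effect; nearly all actives have a fitted effect of over 65% in size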
#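 Cells in G418 medium, seeded 16-24 h, 37C; buffer exchange to DPBS + 1 mM CaCl2, 0.5 mM MgCl2, 0.05% BSA; cpds in DMSO + […] (300 uM stock), 30 min 37C; HTRF cAMP detection.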
# gsp agonist – agonists of gsp mutant (McCune-Albright syndrome). gsp mutant cells, cAMP HTRF, 30 min; control for the full effect not named in the record. Potency, µM (highest dose often 76.9 µM), for inactives: top-dose activation (cAMP increase), usual class: activators. 340,000 compounds, 0.13% hits. AID 624287; active = well fitted activation curve with a large enough effect; inconclusive = small, poorly fitted or top-dose-only effect, or another doubt; inactive = no such curve, though single readings can be large or run the other way; cell line not stated here;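 further: phosphodiesterase inhibitor Ro 20-1724 added with compounds to block cAMP breakdown; potency means the concentration at half of the fitted maximal effect; nearly all actives have a fitted effect of over 60% in size; about a fifth of the inactives were tested at one dose only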
#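 Cells stably selected in G418 were plated at 2000/well, grown 16-24 hr, then given compounds in DMSO with the PDE inhibitor […] (300 uM solution added) for 30 min at 37C; cAMP was read by HTRF.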
# ClpP mod – qHTS Assay for Activators of ClpP; 340,000 compounds, 1.9% hits; Potency, µM (titrated, usually from 57.5 µM), without a hit: at the highest dose activity change, negative = active; purified B. subtilis ClpP, FRET peptide cleavage, 20 min; ATP-dependent Clp protease proteolytic subunit (Bacillus subtilis (strain 168)), P80244; AID 651965, 2013; active = well fitted falling curve with a large enough effect; inconclusive = small, poorly fitted or top-dose-only effect; inactive = no such curve, though single readings can be large or run the other way; further: potency means the concentration at half of the fitted maximal effect; the source files actives as falling curves though it sought activators and does not explain the sign; nearly all actives have a fitted effect of over 65% in size; many hits overshoot -100%
# Target sequence (P80244 whole entry, looked up): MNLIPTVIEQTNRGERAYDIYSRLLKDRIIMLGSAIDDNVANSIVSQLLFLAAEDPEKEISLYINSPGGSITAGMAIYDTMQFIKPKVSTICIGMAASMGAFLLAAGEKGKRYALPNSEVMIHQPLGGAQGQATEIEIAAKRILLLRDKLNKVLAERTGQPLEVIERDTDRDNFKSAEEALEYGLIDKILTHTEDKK
#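 Purified B. subtilis ClpP, 10 microg/mL final in Tris/HCl pH8 with KCl, BSA, glycerol and Tween-20, cleaved an Abz/nitrotyrosine-quenched decapeptide. Fluorescence (ex 320, em 430) was read at 0 and 20 min at room temperature. Delta was normalized to 5.8 microM ADEP and DMSO/no-enzyme controls.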
# Menin-MLL FL inh – displaces fluorescein MLL peptide from human menin | Fluorescence polarization, fluorescein-MLL peptide displacement from menin | FP activity change, % at 61.4 µM | 290,000 tested, under 10 active | AID 1766; inconclusive = falling polarisation curve, or a change in total fluorescence; inactive = total fluorescence flat and polarisation flat or rising; no compound was filed as active; the % refers to the polarisation; negative = inhibition;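 further: % of control where 0% means no effect; inhibitors lower the polarisation; unlabelled MLL peptide was the positive control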
# CtBP-E1A blk – CtBP/E1A binding inhibition; AlphaScreen GST-E1A/His-CtBP binding, 1536-well; hits give low values; control for the full effect not named in the record; activity change, % (concentration not given with the values); 340,000 compounds, 0.49% hits; AID 651724; in the data active means activity change below about -65%; inconclusive means about -30% to -65%; inactive means above about -30%; further: on the % scale 0 is the no-effect control and ±100 the full control effect
#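 Protein mix (5X: 125 nM each GST-E1A, His-CtBP) was incubated with pinned compound 2 h at 37 deg C in dark, in 50 mM Tris pH 8.0 buffer with 300 mM NaCl. Glutathione donor and nickel acceptor beads followed; AlphaScreen signal read after 1 h.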
# TRPV1 potentiator – human TRPV1 potentiation. Q8NER1. TRPV1-expressing cells, Fluo-8 calcium influx, capsaicin EC20 potentiation; host cell line not named in the record; control for the full effect not named in the record. potentiation, % at 8.33 µM. 320,000 compounds, 0.02% hits; active means potentiation above 80%; inconclusive means 30% to 80%; inactive means below 30%; further: 0% is about no effect
# Target sequence (Q8NER1 whole entry, looked up): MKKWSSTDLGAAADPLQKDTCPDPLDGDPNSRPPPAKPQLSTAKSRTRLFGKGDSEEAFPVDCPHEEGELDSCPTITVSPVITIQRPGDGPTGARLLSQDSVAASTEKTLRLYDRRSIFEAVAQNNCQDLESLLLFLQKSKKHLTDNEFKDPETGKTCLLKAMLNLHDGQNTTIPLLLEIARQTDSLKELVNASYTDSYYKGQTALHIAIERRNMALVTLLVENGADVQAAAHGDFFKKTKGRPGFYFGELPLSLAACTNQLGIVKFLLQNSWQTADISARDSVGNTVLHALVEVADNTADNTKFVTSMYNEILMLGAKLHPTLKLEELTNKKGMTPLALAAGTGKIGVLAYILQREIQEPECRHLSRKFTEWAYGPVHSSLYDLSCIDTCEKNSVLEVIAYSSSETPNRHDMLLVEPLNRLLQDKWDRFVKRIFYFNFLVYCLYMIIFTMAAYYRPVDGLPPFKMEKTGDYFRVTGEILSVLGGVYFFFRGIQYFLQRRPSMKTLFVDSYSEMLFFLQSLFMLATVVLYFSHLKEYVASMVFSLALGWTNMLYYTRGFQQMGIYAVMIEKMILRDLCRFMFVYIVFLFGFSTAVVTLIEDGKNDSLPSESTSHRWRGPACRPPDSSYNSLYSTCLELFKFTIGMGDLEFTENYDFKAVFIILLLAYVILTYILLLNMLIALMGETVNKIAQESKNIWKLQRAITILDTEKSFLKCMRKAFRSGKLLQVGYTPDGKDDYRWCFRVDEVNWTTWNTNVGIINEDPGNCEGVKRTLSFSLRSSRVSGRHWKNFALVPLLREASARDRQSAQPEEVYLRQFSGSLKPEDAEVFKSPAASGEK
#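 Cells expressing TRPV1 were dye-loaded with Fluo-8 and read kinetically: 10 s baseline, 3 min after compound (agonist portion), then 2 min after EC20 capsaicin (allosteric enhancer portion). Calcium-bound dye fluorescence at 480/520 nm.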
# * = called active by the depositor; ? = inconclusive; / = no result given; [ ] = dose if it differs, or a comment.
SMILES,Sfp inh,gsp antag,gsp agonist,ClpP mod,Menin-MLL FL inh,CtBP-E1A blk,TRPV1 potentiator
COc1cc(CNCCc2ccc(S(N)(=O)=O)cc2)ccc1OCC(=O)NC1CCCCC1,1.2%,-0.7%,?,-0.5%,4.7,3.3,-19.7
CCc1ccc(-n2c(O)cnc2Nc2nc(C)cc(C)n2)cc1,2.8%,7.2%,1.3%,-2.0%,3.3,-2.8,6.1
COc1ccccc1CNC(=O)CCC(=O)N1CCOc2ccc(Cl)cc21,12.5%,-3.1%,-17.4%,0.9%,-0.4,-15.0,21.8
Cc1cc2cc3c(cc2nc1SCC(=O)Nc1c(C)cccc1C)CCC3,17.1%,6.1%,?,-1.4%,4.1,5.1,/
O=C(Cc1sc(Nc2ccccc2)nc1-c1ccccc1)NCc1ccccc1,?,-17.4%,-36.5%[inhibitor],-4.7%,8.6,-0.2,3.3
Cc1sc2nc(CSCC(=O)Nc3cc(F)ccc3F)[nH]c(=O)c2c1C,/,-14.2%,11.6%,-4.4%,/,/,-18.0
CCOC(=O)c1sc2cc([N+](=O)[O-])cc(SCC(=O)OC)c2c1N,?,?,29.6%,-0.2%,5.9,?,16.3
COc1ccccc1C1(CCN=Cc2ccc(N(C)C)cc2)CCOC(C)(C)C1 (stereo not drawn),3.4%,9.5%,7.6%[15.4 µM],/,5.7,0.2,-0.4
O=C(COC(=O)Cn1[nH]c(=O)c2ccccc2c1=O)Nc1ncc(Cl)cc1Cl,/,-1.3%,?,-9.8%,/,-25.1,4.5
O=C(NCCCn1ccnc1)C(=O)NCC(c1cccnc1)N1CCN(c2ccccc2)CC1 (stereo not drawn),6.4%,0.9%,-0.2%,-5.0%,2.7,-24.0,20.4
NCCc1ccn[nH]1,10.6%,1.7%,/,-1.0%,-2.3[24.8 µM],8.3,2.7
O=C(NCCCN1CCOCC1)C(=O)NCc1ccccc1Cl,12.4%,12.6%,-24.0%,/,-5.0,4.5,-2.4
O=C1NC(=O)N(Cc2ccccc2)C1=O,-11.2%,1.0%,-8.6%,/,-23.9,5.8,11.5
Cc1cc(N2C(=O)C(O)=C(C(=O)c3cc4ccccc4o3)C2c2cccc(Br)c2)no1 (stereo not drawn),5.0%,2.3%,6.31µM*,-1.3%,/,/,1.0
COc1ccc(NC(=S)NNC(=S)Nc2cccc(C(F)(F)F)c2)cc1,20µM*,-23.1%,-0.7%[15.4 µM],/,2.8,-17.8,5.0
COCCOC(=O)c1c(C)n(C)c2ccc(OC(=O)c3ccco3)cc12,-6.9%,8.2%,12.8%,-0.5%,-0.5,0.1,7.7
CCOc1ccc(CN2CCN(Cc3ccsc3)C(CCO)C2)cc1CO (stereo not drawn),13.5%,5.9%,-63.2%[inhibitor],/,0.6,6.2,-4.0
COc1cc(/C=C2\SC(=O)N(CC(=O)Nc3ccc(C)cc3)C2=O)cc(Cl)c1OCC(=O)O,13.7%,-1.3%,-17.8%,-10.2%,30.3[activator],-14.7,-0.7
O=C(NC(=S)Nc1ccccn1)c1ccc(-c2ccccc2)cc1,3.1%,?,27.0%,0.4%,/,-7.2,21.4
COc1ccc(C(C#N)CC(=O)c2ccc(OC)c(OCc3ccccc3)c2)cc1OC (stereo not drawn),/,/,-45.1%[inhibitor],-3.3%,/,-1.0,/
Cc1c(NC(=O)c2cccc(NC(=O)C(C)Oc3ccccc3)c2)c(=O)n(-c2ccccc2)n1C (stereo not drawn),/,/,-34.6%[inhibitor],-0.2%,/,5.3,/
Cc1ccccc1CSc1nnnn1-c1ccc(C(N)=O)cc1,5.9%,-2.4%,-4.6%[15.4 µM],3.9%,2.4,5.2,0.0
CCOc1ccc(C(CC(=O)O)n2cnnn2)cc1OC (stereo not drawn),-0.9%,12.0%,10.1%[15.4 µM],/,2.7,3.0,11.9
COc1cc(-c2ccc3cc(OC)c(OC)c(OC)c3c2)cc(OC)c1OC,/,/,-35.6%[inhibitor],4.4%,/,2.5,/
Cc1nc(N2CCN(C(=O)c3ccco3)CC2)c2c3c(sc2n1)CCCC3,5.3%,-13.1%,10.0%,-6.8%,1.5,?,-19.6
C/C(=N\OC(=O)c1ccc(F)cc1)c1ccc(F)c(F)c1,-23.0%,-4.1%,-16.2%,-2.5%,4.9,0.0,-8.5
CCC(C)NS(=O)(=O)c1ccc(OCC(=O)NCc2ccco2)cc1 (stereo not drawn),-1.1%,6.8%,1.6%,-0.4%,7.0,-3.1,-1.6
Cc1ccc(/C=C/C(=O)OCC(=O)NCc2cccs2)o1,/,-8.7%,?,/,/,4.3,/
O=c1[nH]c2ccccc2c2nc(-c3cccc(S(=O)(=O)N4CCCC4)c3)nn12,-8.8%,-30.9%,9.6%[15.4 µM],/,-0.2,-81.2*,2.1
Cc1ccc(S(=O)(=O)N(c2cccc(C(F)(F)F)c2)C2C=CS(=O)(=O)C2)cc1 (stereo not drawn),-6.1%,-9.6%,-45.4%[inhibitor],-15.1%,0.2,1.1,-3.8
Cc1nnsc1C(=O)NC1CCCc2c1cnn2-c1cc(F)cc(F)c1 (stereo not drawn),7.4%,-1.5%,-1.9%,-5.0%,/,-3.4,-17.1
CC1CCCN(c2nc3nonc3nc2N2CCCC(C)C2)C1 (stereo not drawn),17.3%,-24.5%,-33.2%[inhibitor],1.7%,6.4,-0.6,-6.9
O=c1[nH]c(=O)n(C(c2ccccc2)c2ccccc2)cc1Br,-4.8%,-4.3%,0.4%[15.4 µM],1.6%,-0.6,4.7,-0.6
COc1ccc(NC(=O)COC(=O)c2cc([N+](=O)[O-])ccc2N2CCOCC2)cc1,9.2%,-21.7%,-2.4%[15.4 µM],1.6%,/,11.6,-3.6
CCc1ccc(C(C)NC(=O)/C(C#N)=C\c2cn[nH]c2-c2ccccc2)cc1 (stereo not drawn),5.6%,-7.6%,13.8%,-3.2%,6.5,7.2,3.6
O=C(Cn1cnc2ccccc2c1=O)Nc1nc2ccccc2s1,-12.1%,3.8%,7.6%[15.4 µM],/,-3.9,-11.6,-1.7

# Reprinted from the part before: 2 compounds, then new ones.
SMILES,Sfp inh,gsp antag,gsp agonist,ClpP mod,Menin-MLL FL inh,CtBP-E1A blk,TRPV1 potentiator
CCc1ccc(C(C)NC(=O)/C(C#N)=C\c2cn[nH]c2-c2ccccc2)cc1 (stereo not drawn),5.6%,-7.6%,13.8%,-3.2%,6.5,7.2,3.6
O=C(Cn1cnc2ccccc2c1=O)Nc1nc2ccccc2s1,-12.1%,3.8%,7.6%[15.4 µM],/,-3.9,-11.6,-1.7
COC(C[C@H]1O[C@@H]1[C@H](O)COCc1ccccc1)OC,14.7%,-6.9%,/,-1.4%,0.7,-3.6,?
COC(=O)CC1Oc2ccccc2N(Cc2ccc(C)cc2)C1=O (stereo not drawn),?,-2.1%,-2.6%,-1.0%,2.1,-0.1,-14.6
COc1ccc(-n2nc(C(=O)NCC(=O)N(C)Cc3ccccc3)c3ccccc3c2=O)c(OC)c1,-0.6%,5.2%,-6.7%,/,-3.3,-13.1,-7.7
COc1ccc(C(=O)N2CCc3[nH]nc(-c4ccccc4)c3C2)cc1,2.4%,-10.0%,-29.2%,2.2%,-2.0,0.0,-3.0
CC(C)(C)c1ccc(C(=O)NCC(=O)N2CCCC2)cc1,8.2%,4.6%,-11.1%[15.4 µM],/,-3.7,3.5,-29.9
Cc1ccc(NCc2ccccc2OCc2ccccc2F)cc1,-3.0%,4.6%,-4.1%,-0.3%,-1.9,-23.4,12.8
C[C@@H](C(O)c1ccccc1)N(C)C(=O)CCc1ccccc1 (stereo partly drawn),19.1%,5.2%,-25.4%,-0.5%,1.4,/,-16.9
C/C(Cn1ncc(N2CCOCC2)c(Cl)c1=O)=N\O,3.6%,8.5%,-17.4%,-1.1%,-0.4,/,?
COc1ccc(S(=O)(=O)N(C)C[C@H]2OCc3cnnn3CCCC(=O)N([C@H](C)CO)C[C@H]2C)cc1,/,/,?,-3.0%,/,-3.3,/
COc1ccccc1CN1CCC(n2nccc2NC(=O)c2ccccc2Cl)CC1,29.5%,-8.3%,?,-0.5%,-12.6,2.8,17.5
Cc1cc2cc(CN(Cc3ccco3)C(=O)C3CCCCC3)c(=O)[nH]c2cc1C,16.6%,17.2%,-12.0%,-24.2%,0.7,5.5,-6.7
COCCn1c(SCC(=O)/C=C2\N(C)c3ccccc3C2(C)C)nnc1-c1ccncc1,21.8%,-5.7%,22.9%,-9.0%,6.7,-22.1,-5.2
CCc1nnc(NC(=O)CSc2nnc(-c3ccco3)n2CCOC)s1,15.8%,0.9%,14.4%[15.4 µM],/,-4.3,7.1,-8.1
COc1ccc(Oc2cccc(Cl)c2CNC(=O)CSCC(=O)O)cc1,3.6%,5.3%,-5.7%,/,3.2,-0.2,0.6
O=C(COC(=O)Cc1ccc(Cl)c(Cl)c1)NCCc1ccccc1,/,/,?,-0.3%,/,4.2,/
CCOC(=O)c1cccc(NC(=O)CCc2nnc3ccc(N4CCOCC4)nn23)c1,15.3%,-1.4%,25.0%,-0.3%,/,5.6,-0.8
Cc1csc(=O)n1CC(=O)OCc1nnc(-c2ccccc2)o1,/,0.6%,-30.9%[inhibitor],-6.2%,/,-2.6,-3.9
CCOc1ccc(S(=O)(=O)Nc2ccc(S(=O)(=O)N3CCCCC3)cc2)cc1,0.3%,?,?,1.2%,1.7,10.9,9.9
C=CCC1(CC=C)CCCN1C(=O)C1CCC(=O)N(CCc2ccccc2)C1 (stereo not drawn),17.0%,1.4%,8.1%[15.4 µM],-1.0%,/,4.5,-13.9
O=C(NCC1COc2ccccc2O1)c1cccc(S(=O)(=O)N2CCN(c3ccccc3)CC2)c1 (stereo not drawn),/,-8.3%,?,-1.8%,/,-0.9,1.3
Cc1ccccc1NC(=O)Cc1c(O)c2ccccc2[nH]c1=O,15.7%,-28.3%,?,15.8µM*,0.3,-1.5,-5.6
COc1ccc(-n2cnnc2SCCC#N)cc1,8.7%,10.5%,-6.2%,-0.6%,3.0,-0.4,-0.6
CC1CCN(CCc2nc3cc(NC(=O)C(C)C)ccc3n2C)CC1,-0.2%,-3.2%,19.7%,-2.7%,-11.1,9.1,-11.4
